Screens from PubChem.
Beta apoptosis: inhibitors of cytokine-induced beta cell apoptosis, primary screen, luminescence | INS-1E cytokine-induced death, ATP luminescence, 48 h; percent of positive-control rescue, neutral wells zero | protection from apoptosis, % (test concentration not listed) | 0.8% of 300,000 active;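 active = all replicates at 75% or more, or half of them and the mean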;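 note: 0% = cytokine-treated negative control wells and 100% = positive control rescue; higher means more ATP so stronger rescue from cytokine killing; wells of about 40 µL received 100 nL stock; the first replicate is given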
Ecoli rRNA inh: reduced GFP signal of wild-type E. coli, primary screen, bacterial rRNA inhibitor project, GFP/RFP fluorescence, OD600, single point; AID 720706, 2013; GFP signal change (wild-type ribosome), % (concentration not given with the values); E. coli WT GFP vs humanized-ribosome RFP mutants, 24 h; stronger effect = lower value; DMSO median 0, no signal -100; 1.6% of 350,000 active;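 active = significant combined selectivity score with lowered wild-type GFP, culture density cut under 30%, mutant RFP and density less affected; inactive = any of these conditions unmet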; note: one replicate is shown; some compounds called inactive have numbers as strong as hits
E coli growth: E. coli growth inhibition, primary screen, OD600; Escherichia coli growth, 23 h; stronger effect = lower value; OD600 absorbance (test concentration not listed); 0.21% of 330,000 active; AID 1053175, 2014;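 active = OD600 absorbance below the run mean of sample wells minus 3.6 SD, in any replicate, cut at about 0.56 in these data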;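 note: stock transfer was 300 nL into about 60 µL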
A1 inh: caspase 3/7 activation in MEF A1-2A-BIM cells, primary screen, A1 inhibitor project, cell-based, luminescence, HTS | caspase activation, % (test concentration not listed) | Caspase-Glo 3/7 luminescence, 3 h; percent of clofoctol response, vehicle zero | 0.066% of 330,000 active;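 active = over half of replicate activation scores above 10%, or exactly half above 10 with the replicate mean above 10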;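 note: wells of about 30 µL received 50 nL stock; many hits fall short of the cut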
FGF22 binding: binders of human FGF22 protein, primary screen, FGF22 synaptogenesis inhibitor project, biophysical, thermal shift, single point. Fibroblast growth factor 22 (Homo sapiens), Q9HCT0. recombinant FGF22 thermal shift, SYPRO orange fluorescence; percent of sucrose octasulfate shift, DMSO zero. calls only at 9.99 µM. 1.5% of 340,000 active. AID 651658, 2012;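 active = melting point raised past a set limit in the mean and every replicate; three in four hits are not shown here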
Target sequence (Q9HCT0 whole entry, looked up): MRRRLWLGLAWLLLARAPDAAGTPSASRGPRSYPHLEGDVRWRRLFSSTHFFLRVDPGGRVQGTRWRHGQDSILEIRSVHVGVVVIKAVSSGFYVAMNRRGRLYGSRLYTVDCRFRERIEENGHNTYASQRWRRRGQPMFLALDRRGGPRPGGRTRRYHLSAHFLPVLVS
MLL AF4-AF9 inh: inhibitors of AF4 peptide binding to AF9, primary screen, biochemical, AlphaScreen, biotin-AF4 peptide, FLAG-AF9, single point. Protein AF-9 (Homo sapiens), P42568. inhibition, % at 10 µM. 0.47% of 350,000 active. AID 651704, 2012;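 active = every replicate reaching a set inhibition limit, whatever the replicate mean, cut at about 25% in these data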;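 note: 0% = plate neutral control median and 100% = total signal loss; the record names both 10 and 1 µM as test concentration; the first replicate is given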
UCH37 DUB inh: inhibitors of human UCH37 deubiquitinase, primary screen, biochemical, Ub-AMC cleavage, fluorescence | Ubiquitin carboxyl-terminal hydrolase isozyme L5 (Homo sapiens), Q9Y5K5 | purified proteasome/UCH37 | inhibition, % (concentration not given with the values) | 0.33% of 330,000 active | AID 588478, 2011;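 active = mean of two replicates above 20%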;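 note: 0% = compound-free wells with enzyme and 100% = wells lacking proteasome; stock transfer was 100 nL into about 20 µL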
Target sequence (Q9Y5K5 whole entry, looked up): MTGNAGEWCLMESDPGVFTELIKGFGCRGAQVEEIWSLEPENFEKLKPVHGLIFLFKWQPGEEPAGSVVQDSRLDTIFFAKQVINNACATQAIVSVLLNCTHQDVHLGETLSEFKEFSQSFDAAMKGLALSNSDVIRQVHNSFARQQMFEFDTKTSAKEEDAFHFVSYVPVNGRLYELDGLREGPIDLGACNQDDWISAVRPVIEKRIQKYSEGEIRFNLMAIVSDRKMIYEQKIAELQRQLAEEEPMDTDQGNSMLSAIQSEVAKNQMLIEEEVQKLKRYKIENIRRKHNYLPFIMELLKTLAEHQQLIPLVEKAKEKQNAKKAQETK
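assay system = human UCH37 enzyme supplied as purified proteasome complex | amount = proteasome at 0.15 nM in the dispensed enzyme solution | schedule = 30 min compound-proteasome preincubation then 25 min substrate reaction, room temperature | measured by = fluorescence, ex 355 nm, em 460 nm | benchmarks = no-proteasome wells (full inhibition) and compound-free wells (no inhibition)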
T cruzi repl: inhibitors of intracellular T. cruzi growth, primary screen, luminescence, NIH3T3 host cells; T. cruzi beta-gal in NIH3T3, 90 h; 1.4% of 300,000 active; inhibition, % (no concentration beside the values);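 active = mean inhibition across valid replicates above about 55%, limit read from the data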;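 note: signal also drops with host cell toxicity which is not excluded here; 0% = plate median of DMSO wells and 100% = zero luminescence signal; higher percent means less beta-gal luminescence so fewer parasites; stock transfer was 50 nL into about 50 µL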
Ecoli rRNA inh OD600: further read-out of Ecoli rRNA inh, marked with its call; OD600 change, %; measured here: OD600 growth;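 optical density of the mix in the first replicate; 0 = DMSO median and -100 = no signal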
Ecoli rRNA inh RFP: second read-out of Ecoli rRNA inh, no call of its own (marks repeat the call); RFP signal change, %; measured here: RFP humanized mutant strains;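 first replicate; 0 = DMSO median and -100 = no signal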
* hit, by the source's call; i = inactive; x = not tested or not shown; & = joins results of further samples.

structure	Beta apoptosis	Ecoli rRNA inh	Ecoli rRNA inh OD600	Ecoli rRNA inh RFP	E coli growth	A1 inh	FGF22 binding	MLL AF4-AF9 inh	UCH37 DUB inh	T cruzi repl
COc1ccc(OC)c(C(O)c2coc3ccc(O)c(CN4CCOCC4)c23)c1 (centres undefined)	-2	3	7	0.9	0.68	0.4	i	-1.9	3.4	-7
O=C(Nc1ccccc1N1CCOCC1)C1CCCO1 (centres undefined)	-5	5	1	1.1	0.71	-0.3	i	-2.7	3.8	x
O=C(NCCN1C(=O)C2C3C=CC(C3)C2C1=O)N1CCCCC1 (centres undefined)	-4	6	9	-2.1	0.73	-0.3	i	9.6	-1.3	-13
CN(C)S(=O)(=O)N1CCN(S(=O)(=O)N(C)C)CC1	-1	22	13	2.1	0.71	-0.3	i	-3.8	-0.5	-7
COC(=O)[C@@H](c1ccccc1)N(C)S(=O)(=O)c1cccc(S(=O)(=O)N(C)[C@@H](C(=O)OC)c2ccccc2)c1	22	2	-1	-1.0	x	-0.5	i	x	1.9	47
Nc1nc2nc(-c3ccccc3)cc(C(F)(F)F)c2s1	-1	-13	-8	-1.8	0.66	-0.1	i	-0.8	-4.6	-6
CCn1c(C(C)NC(=O)c2cccs2)n[nH]c1=S (centres undefined)	-2	12	-4	-0.7	0.71	0.3	i	-6.2	-0.3	-13
COc1ccccc1N1CC(C(=O)Nc2nnc(SCC(=O)NC(C)C)s2)CC1=O (centres undefined)	-4	8	12	1.2	0.72	-0.2	i	-0.5	5.6	-7
O=C(Nc1ccc(S(=O)(=O)NCc2ccccc2)cc1)C1CCCCC1	-3	5	7	0.4	0.68	-0.2	i	-0.5	0.8	-7
CCOc1ccc(S(=O)(=O)Nc2cccc(OC)c2)cc1	-4	x	x	x	0.65	-0.8	x	x	0.3	-19
CCOC(=O)N1CCC(=NNC(=O)COc2ccc(C#N)cc2)CC1	-4	5	5	-0.7	0.7	0.2	i	3.0	4.3	-17
CCOC(=O)C1=CN(Cc2cccc(F)c2)S(=O)(=O)NC1c1cccc(OC)c1 (centres undefined)	x	-9	-10	-0.8	0.68	x	i	-4.6	2.3	x
CC(C)(C)OC(=O)NCCC(=O)N/N=C/c1ccc2ncccc2c1	x	-4	3	1.7	x	0.3	i	-1.4	x	12
O=C(Cc1ccc(Cl)cc1)Nc1cc(S(=O)(=O)N2CCOCC2)ccc1N1CCCC1	11	-26*	-19*	-0.4*	0.65	1.3	i	2.9	-2.6	29
Cc1ccc(C(=O)CN2CCC(NC(=O)C3CCCCC3)CC2)cc1	1	x	x	x	0.72	0.4	x	x	1.5	0
C[C@H]1CN([C@@H](C)CO)C(=O)Cc2cc(NC(=O)CCN3CCOCC3)ccc2O[C@@H]1CN(C)Cc1ccc(Oc2ccccc2)cc1	-4	-3&-54	-4&-83	4.8&-18	0.67	-0.5	i	2.9&14	2.9	x
CCN(C(=O)CCC(=O)N(CC)c1ccccc1)c1ccccc1	1	4	-2	-2.4	0.7	-0.7	i	-9.1	1.0	2
COc1ccc(C2CC(C(F)(F)F)n3nc(CO)c(Cl)c3N2)cc1OC (centres undefined)	-4	x	x	x	0.64	-0.5	x	x	5.9	-9
CCN(CC)CCc1nc(-c2ccccc2)no1	-11	1	6	0.6	x	0.8	i	-5.2	1.7	x
COCCNc1oc(/C=C/c2ccccc2)nc1C#N	3	-15	-14	-6.4	0.7	0.2	i	3.4	i	-13
COCCNC(=O)C(c1cccs1)N(Cc1ccccc1)C(=O)Cn1nnc2ccccc21 (centres undefined)	-1	x	x	x	0.71	-0.1	x	x	5.9	-5
N#CC1=C(N)Oc2nc(-c3ccccc3)[nH]c2C1c1cccnc1 (centres undefined)	-4	x	x	x	0.75	-0.5	x	x	-1.0	12
Cc1cc(-c2ccccc2)nc2c(Br)c(C(=O)O)nn12	-3	x	x	x	0.66	-0.3	x	x	5.2	-17
COc1cc(C(=O)NCc2nnc(SCC(=O)N3CCCc4ccccc43)o2)cc(OC)c1OC	0	14	12	11	0.76	0.4	i	-3.9	1.7	10
Nc1ccc(C(=O)N2CCCC2)cc1CS(=O)(=O)c1ccc(Cl)cc1	-4	12	7	3.1	0.7	-1.1	i	-0.8	2.4	-24
C/C(=N\NC(N)=O)C1CC(Cc2ccccc2)C(=O)O1 (centres undefined)	-9	25	16	3.4	x	0.4	i	-3.4	x	-2
Nc1ncnc(Nc2cccc(C(F)(F)F)c2)n1	3	x	x	x	0.68	-0.3	x	x	1.0	-12
COc1ccccc1NC(=O)Cc1noc(CSc2nnc(C)s2)n1	-6	x	x	x	0.71	0.0	x	x	0.9	-5
O=C(NC1CC1)c1ccc(COc2ccc(F)cc2)o1	4	x	x	x	0.67	-0.1	x	x	3.4	4
CC(C)Sc1nnc(Cn2c(=O)sc3ccccc32)n1-c1ccccc1	-3	4	-1	2.7	0.7	-0.2	i	-2.7	1.2	13
OCCCN=C1CCCc2c1[nH]c1ccc(Cl)cc21	0	-15	-10	3.3	0.63	0.2	i	4.4	-15	-1
Cc1nn(Cc2c(F)c(F)c(F)c(F)c2F)c(C)c1NC(=O)c1ccc(COc2ccc(Cl)cc2Cl)o1	21	x	x	x	0.78	0.4	x	x	4.8	67*
CC(OC(=O)c1ccccc1C(=O)N(C)Cc1ccccc1)C(=O)NC1(C#N)CCCCC1 (centres undefined)	x	-5	2	0.0	0.63	x	i	-0.9	1.2	x
Cn1c(N)c(C(=O)COC(=O)c2ccccc2C(=O)c2ccc(Cl)cc2)c(=O)n(C)c1=O	2	-13	-42	-2.6	0.69	-0.1	i	-0.2	3.7	x
COc1cc2nc(CN3CCN(S(=O)(=O)c4ccc(Br)cc4)CC3)[nH]c(=O)c2cc1OC	5	-3	-5	2.4	0.67	-0.3	i	0.6	-3.5	x
CC(=O)Nc1ccc(S(=O)(=O)NC2=NCN(CCOC(=O)c3ccccc3)CN2)cc1	-2	x	x	x	0.74	-0.5	x	x	-4.2	-2
O=C(CN(C(=O)CCC(=O)Nc1nccs1)c1ccc(F)c(Cl)c1)NCc1ccco1	-1	x	x	x	0.75	0.0	x	x	6.4	5
Cc1c(Br)ccc(NC(=O)CCN2C(=O)C3C4CCC(C4)C3C2=O)c1C (centres undefined)	-14	x	x	x	0.7	-0.2	x	x	-0.4	-13
NC(=O)C1CCN(c2cc(Cl)nc(N)n2)CC1	1	11	11	-0.6	0.67	0.1	i	3.0	2.7	-8
COc1ccc(-c2[nH]n(-c3ccc([N+](=O)[O-])cc3)c(=O)c2C=NCc2ccccc2)cc1	2	8	14	-0.7	0.75	0.0	i	3.5	3.5	-11
Cc1ccccc1CN1CCC(Oc2ccc(C(=O)NCc3ccccn3)cc2)CC1	-1	10	11	4.2	0.67	-0.6	i	0.5	4.7	-3
Cc1nc2ccccc2nc1N1CCOCC1	-4	14	5	1.9	0.66	-0.2	x	x	1.0	-13
Cc1ccccc1Nc1nc2nonc2nc1N1CCOCC1	4	-7	-11	-16	0.66	0.3	i	-4.1	9.0	-10
Cc1c(Br)c([N+](=O)[O-])nn1CC(=O)Nc1c(C)n(C)n(-c2ccccc2)c1=O	-1	16	-1	-0.5	0.69	0.9	i	-2.8	2.8	1
O=C(CN1CCN(c2ccccc2)CC1)NC(=O)NCc1ccco1	-2	2	2	-1.0	0.69	-0.3	i	-0.8	0.8	0
CCCNC(=O)c1oc2ccc3c(c2c1C)C(O)CC(C)(C)O3 (centres undefined)	4	4	7	0.2	0.68	0.9	i	-1.8	-29	-9
O=c1c2c(c(-c3ccccc3)nn1Cc1ccccc1)CCCC2	2	-48	-71	-13	0.67	0.2	i	1.1	1.7	7
CCOC(=O)NC(=O)CSc1ccc(S(=O)(=O)N(C)C2CCCCC2)cn1	-1	-5	-4	0.8	0.68	0.1	i	4.1	2.8	x
CN(CC1COc2ccccc2O1)C(=O)Cn1cc(C(F)(F)F)ccc1=O (centres undefined)	-2	1	14	0.0	0.67	0.0	i	-4.9	3.2	x
O=C(NCCc1ccc2c(c1)OCCO2)c1cc2ccccc2o1	-2	x	x	x	0.69	-2.8	x	x	4.7	-9

The last six entries of the section before come first, to join the parts.
structure	Beta apoptosis	Ecoli rRNA inh	Ecoli rRNA inh OD600	Ecoli rRNA inh RFP	E coli growth	A1 inh	FGF22 binding	MLL AF4-AF9 inh	UCH37 DUB inh	T cruzi repl
O=C(CN1CCN(c2ccccc2)CC1)NC(=O)NCc1ccco1	-2	2	2	-1.0	0.69	-0.3	i	-0.8	0.8	0
CCCNC(=O)c1oc2ccc3c(c2c1C)C(O)CC(C)(C)O3 (centres undefined)	4	4	7	0.2	0.68	0.9	i	-1.8	-29	-9
O=c1c2c(c(-c3ccccc3)nn1Cc1ccccc1)CCCC2	2	-48	-71	-13	0.67	0.2	i	1.1	1.7	7
CCOC(=O)NC(=O)CSc1ccc(S(=O)(=O)N(C)C2CCCCC2)cn1	-1	-5	-4	0.8	0.68	0.1	i	4.1	2.8	x
CN(CC1COc2ccccc2O1)C(=O)Cn1cc(C(F)(F)F)ccc1=O (centres undefined)	-2	1	14	0.0	0.67	0.0	i	-4.9	3.2	x
O=C(NCCc1ccc2c(c1)OCCO2)c1cc2ccccc2o1	-2	x	x	x	0.69	-2.8	x	x	4.7	-9
CCNC(=S)NNC(=O)c1ccc2ncccc2c1	-3	8	8	-2.7	0.71	0.1	x	0.4	2.2	-11
O=C1CCCN2N=C(SCC(=O)Nc3ccc([N+](=O)[O-])cc3)SC2=N1	1	8	9	0.4	0.66	0.1	i	-0.9	1.6	-10
COc1ccc(-n2c(/C=C(\C)O)nc(=O)c3c(C)cc(C)nc32)cc1	6	x	x	x	0.67	0.5	x	x	6.3	20
COc1ccc(C2=NN(C(=O)COC(=O)c3ccc(NC(=O)CC#N)cc3)C(c3ccco3)C2)cc1 (centres undefined)	-2	21	14	29	0.7	0.3	i	-0.1	-1.5	x
O=C(NCc1cccnc1)c1nn2cccnc2c1Cl	-1	8	13	-1.2	0.69	0.2	i	-11	-0.8	6

This is a subset; rates above refer to the full screens.
